miR-21 FLuc: qHTS Assay for Modulators of miRNAs and/orActivators of miR-21; HeLa miR-21 FLuc reporter, luciferase, 48 h; Potency, µM (top dose mostly 38.3 µM), for the others: top-dose reporter change, positive = more light; 340,000 tested, under 10 active; active = well fitted rising curve with a large enough effect; inconclusive = small, poorly fitted or top-dose-only effect; inactive = no such curve, though single readings can be large or run the other way;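 also: % of control where 0% means no effect; miR-21 action dims this reporter so a rising signal means less miR-21 action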
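HeLa cells stably expressing CMV-driven firefly luciferase with a downstream miR-21 binding sequence, endogenously expressing miR-21, were treated with titrations (up to about 40uM final) for 48 hours at 37 degree Celsius. Luciferase luminescence was read after lysis.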
Rango complex inh: qHTS Assay for Inhibitors of Rango (Ran-regulated importin-beta cargo) - Importin beta complex formation; Rango CFP/YFP FRET sensor + importin beta, 45 min; Potency, µM (top dose mostly 92.2 µM), for the others: top-dose inhibition of complex formation; hit rate 0.031% among 340,000; active = rising FRET ratio curve, often small or poorly fitted; inconclusive = mostly compound fluorescence or quenching in the first reads; inactive = flat curves in all reads;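 also: potency is read from the fitted curve at half-maximal effect; 0% = DMSO wells and 100% = buffer wells lacking importin beta; nearly all actives have a fitted effect of over 15% in size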
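Inhibition scored from the CFP 486 nm/YFP 530 nm FRET ratio 45 min after adding 0.125 microM importin beta to 50 nM Rango biosensor preincubated 5 min with compound (room temperature, PBS with DTT, Tween-20, BSA). No-importin wells as positive control.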
GLA inh pH 4.5: qHTS Assay for Inhibitors of Human alpha-Galactosidase at pH 4.5; Alpha-galactosidase A (Homo sapiens), P06280; purified enzyme, 4-MU-alpha-Gal fluorescence, pH 4.5; activity change, negative = inhibition, % at 105 µM; 230,000 tested, under 10 active; AID 1467, 2008; inconclusive = small, poorly fitted or top-dose-only inhibition, or a rising curve; inactive = flat fitted curve, though single readings scatter; no compound was filed as active;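 also: 0% = full activity with enzyme and -100% = basal without enzyme; dose as in the result columns while the protocol names 77 µM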
Target sequence (P06280 whole entry, looked up): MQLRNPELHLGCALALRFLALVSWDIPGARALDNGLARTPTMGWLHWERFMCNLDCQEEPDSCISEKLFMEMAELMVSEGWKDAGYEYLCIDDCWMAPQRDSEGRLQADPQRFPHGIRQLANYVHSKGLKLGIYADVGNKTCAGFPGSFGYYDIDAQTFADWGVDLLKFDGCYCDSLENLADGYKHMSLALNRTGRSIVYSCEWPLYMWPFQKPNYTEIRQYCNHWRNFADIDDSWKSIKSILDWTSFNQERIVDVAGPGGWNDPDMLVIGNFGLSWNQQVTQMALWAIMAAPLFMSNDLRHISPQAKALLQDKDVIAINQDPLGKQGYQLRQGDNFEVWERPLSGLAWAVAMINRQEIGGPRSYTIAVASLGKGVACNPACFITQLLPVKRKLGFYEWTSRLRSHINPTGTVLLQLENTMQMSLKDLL
Rango dissoc inh: qHTS Assay for Inhibitors of RanGTP induced Rango (Ran-regulated importin-beta cargo) - Importin beta complex dissociation; Biochemical FRET Rango-importin beta, RanGTP-induced dissociation; AID 540253, 2011; Snurportin-1 (Homo sapiens) + GTP-binding nuclear protein Ran (Homo sapiens) + Importin …; hit rate 0.071% among 340,000; Potency, µM (top dose mostly 46.1 µM), for the others: at the top dose activity change, negative = inhibition; active means falling FRET ratio curve, often poorly fitted, with flat reads before Ran was added; inconclusive means other falling curves, or compound fluorescence or quenching; inactive means flat or rising ratio curve;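 also: potency is read from the fitted curve at half-maximal effect; % of control where 0% means no effect; nearly all actives have a fitted effect of over 45% in size; -100% = wells without RanGTP and RCC1; the record marks most hits as doubtful in a second field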
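Rango (0.1 uM)–importin beta (0.25 uM) complex; RanGTP-RCC1 trigger; 45 min RT; CFP/YFP FRET read.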
Starred values were filed as active, the others as inactive; u = inconclusive; x = not tested or not shown. Not all compounds are listed, so the mix of outcomes need not match the whole.

SMILES | miR-21 FLuc | Rango complex inh | GLA inh pH 4.5 | Rango dissoc inh
Cc1cc(C)c(S(=O)(=O)N2CC=C(c3ccccc3)CC2)c(C)c1 | x | -1.8% | x | 11%
COCCCNc1nc(CC(C)C)nc2c1nnn2Cc1ccccc1 | -2% | -2.1% | x | -24%
COc1ccccc1CCNS(=O)(=O)c1cn(C)nc1C | 0% | 0.9% | x | 0%
Cc1nc2nc3c(c(=O)n2[nH]1)CCC3 | 0% | 2.5% | 2 | 1%
CN(C)c1cc[n+](Cc2ccccc2)cc1 | 9% | -0.9% | 3 | -2%
Cc1ccc(Nc2nnc(-c3ccccc3N)o2)cc1C | -55% | -4.3% | u | -7%
O=C(O)c1ccc(N/N=C/c2ccc(C(F)(F)F)cc2)cc1 | -9% | -4.1% | -2 | -1%
CC1CN(c2cc(=O)n(Cc3ccc(F)cc3)c(=O)[nH]2)CC(C)O1 (stereo unspecified) | -2% | -1.9% | -6 | -5%
Cc1cc(NC(=O)c2c(Cl)cnn2C)no1 | -3% | 0.2% | 0 | 31%
CCC(=O)NC(=S)Nc1ccc(OC)cc1OC | -26% | 1.6% | 3 | 3%
O=C(CSC1=NS(=O)(=O)c2cc(Cl)ccc2N1)c1ccc(Cl)cc1 | x | 0.9% | x | -2%
CCOC(=O)C1=C(C)Nc2nc(SC)nn2C1c1ccc(C(=O)OC)cc1 (stereo unspecified) | -2% | -0.7% | 7 | -5%
CC(=O)c1ccc(NC(=O)C(C)N(C)CC(=O)Nc2cccc(F)c2)cc1 (stereo unspecified) | 3% | 1.7% | -7 | -9%
CCCOC(=O)c1ccc(NC(=O)C2C3C=CC(O3)C2C(=O)O)cc1 (stereo unspecified) | -41% | 1.0% | 6 | -6%
O=C(O)C(c1ccccc1)C(O)C1CC=CCC1 (stereo unspecified) | x | -1.8% | x | 13%

Reprinted at random: 2 records from the list.
SMILES | miR-21 FLuc | Rango complex inh | GLA inh pH 4.5 | Rango dissoc inh
Cc1cc(C)c(S(=O)(=O)N2CC=C(c3ccccc3)CC2)c(C)c1 | x | -1.8% | x | 11%
CCOC(=O)C1=C(C)Nc2nc(SC)nn2C1c1ccc(C(=O)OC)cc1 (stereo unspecified) | -2% | -0.7% | 7 | -5%

The list goes on:
SMILES | miR-21 FLuc | Rango complex inh | GLA inh pH 4.5 | Rango dissoc inh
CCn1c(SCC#N)nc2cc(S(=O)(=O)N3CCOCC3)ccc21 | -6% | 4.4% | x | -1%
Cc1ccc(N(Cc2cc3cc(C)ccc3[nH]c2=O)C(=O)c2cccs2)cc1 | -10% | 7.7% | 3 | 22%
Cc1cccc(C(=O)Nc2ccc(C(=O)N/N=C/c3cccnc3)cc2)c1 | 8% | 1.8% | x | -5%
O=[N+]([O-])c1ccc(Cl)cc1Sc1cccc2cccnc12 | -8% | -5.1% | -1 | 22%
COc1ccc(-c2ccc3oc(-c4ccsc4)c(-c4ccc(OC)cc4)c3c2)cc1 | x | 3.7% | x | 9%
CC(C)(C)N1C(=O)[C@H]2[C@@H](c3ccc(Br)cc3)N3C(=O)N(c4cccc(Br)c4)C(=O)[C@@]3(Cc3ccccc3)[C@H]2C1=O | 9% | 1.7% | x | 3%
Cc1ccc(Oc2cc(NC(=O)CCCn3nc(C)c([N+](=O)[O-])c3C)cc([N+](=O)[O-])c2)cc1 | -1% | 4.3% | 1 | 18%
S=C(NCC1CCCO1)N1CCN(c2nc(-c3ccccc3)cs2)CC1 (stereo unspecified) | 20% | -1.9% | -22 | 9%
CCn1cc(C(=O)NC2CCCCC2)c(=O)c2ccc(C)nc21 | 1% | -3.1% | 8 | -3%
C=CCNC(=S)NNC(=O)C(CCCC)CC(O)COCC(C)C (stereo unspecified) | 0% | 0.0% | -2 | -1%
CCC(C)Sc1nc(O)c(Cc2ccccc2)c(=O)[nH]1 (stereo unspecified) | 0% | 1.4% | 6 | -2%
CC(=O)n1cc([C@@H]2C=C(C(=O)NCc3ccccc3)O[C@H](OCCCCO)C2)c2ccccc21 | -2% | u | 1 | -28%
Oc1ccc(/C=N/Nc2nc(-c3ccc(Cl)cc3)cc(C(F)(F)F)n2)cc1 | u | -2.2% | -12 | 1%
C[C@H]1CCC[C@]2(C)C[C@H]3OC(=O)C(CN4CCCCCC4)[C@H]3C=C12 (stereo partly specified) | 25% | u | x | -9%
N#Cc1cc2c(nc1SCC(=O)N1CCCCC1)CCCC2 | -38% | -0.7% | -10 | 19%

2 neighbouring entries already listed, quoted:
SMILES | miR-21 FLuc | Rango complex inh | GLA inh pH 4.5 | Rango dissoc inh
CCn1c(SCC#N)nc2cc(S(=O)(=O)N3CCOCC3)ccc21 | -6% | 4.4% | x | -1%
Cc1ccc(N(Cc2cc3cc(C)ccc3[nH]c2=O)C(=O)c2cccs2)cc1 | -10% | 7.7% | 3 | 22%

(list continues)
SMILES | miR-21 FLuc | Rango complex inh | GLA inh pH 4.5 | Rango dissoc inh
CCN(CC)c1ccc(C2C3CCCCC3(O)CCN2CC(=O)Nc2ccccc2)cc1 (stereo unspecified) | -1% | -3.0% | -11 | 2%
Cc1cccc2c3nc4ccccc4nc3n(C)c12 | -18% | u | x | u
O=c1cc(-c2ccccc2)cc(-c2ccccc2)n1CCO | x | 0.4% | x | u
CCOC(=O)C1(Cc2cccc(OC)c2)CCN(Cc2ccccc2)CC1 | 0% | -1.2% | -11 | -5%
Cc1ccc(C)c(NC(=O)Nc2ccc3c(c2)OCO3)c1 | -40% | -0.7% | x | -8%
O=C(CC(c1ccccc1)c1cc(Br)ccc1O)NCCN1CCOCC1 (stereo unspecified) | 13% | 0.3% | 5 | -11%
CCN(C(=O)COC(=O)CCC(=O)c1ccc(C)cc1)c1c(N)n(Cc2ccccc2)c(=O)[nH]c1=O | x | 7.7% | x | -1%
O=C(Cc1cccs1)Nc1nncs1 | -1% | u | -1 | 4%
CN(CCC1CCCCO1)C(=O)CCc1nnc(Cc2c[nH]c3ccccc23)o1 (stereo unspecified) | -1% | 0.2% | x | 5%
Cc1ccnc(SCC(=O)c2ccc(Br)cc2)c1C#N | -53% | u | 0 | u
O=C(CSc1ccccc1)Nc1ccc(N2CCOCC2)c(F)c1 | -53% | -3.1% | x | -14%
Cn1cc(SCC(N)=O)c2ccccc21 | -2% | 0.3% | 10 | -21%
O=C(c1nn2cccnc2c1Cl)N1CCN(c2ccccc2)CC1 | -11% | 1.0% | -8 | -11%
COc1cc(C2CC(=O)Oc3cc(OC)c(OC)c(OC)c32)cc(OC)c1OC (stereo unspecified) | x | 1.8% | x | 10%
CCCn1c(SCC(=O)NCCc2ccc(OC)c(OC)c2)nc2c1c(=O)n(C)c(=O)n2C | 0% | -1.1% | -3 | -2%
O=C(COC(=O)c1cnccn1)c1ccc(C2CCCCC2)cc1 | -9% | 0.9% | x | 2%
Cc1cccc(-n2c(O)c(/C=N/NC(=O)c3ccccc3Cl)c3ccccc3c2=O)n1 | 14% | u | -16 | u
CCCC(=O)NC(NC(=S)Nc1c(C)n(C)n(-c2ccccc2)c1=O)C(Cl)(Cl)Cl (stereo unspecified) | 0% | -0.7% | 3 | 0%
CCN1C(c2ccc(F)cc2)=CS/C1=C(\C#N)c1nnc2n1-c1ccccc1SC2 | 9% | 7.6% | 6 | 1%
CC1CCCCN1C(=O)Cn1c(=O)n(-c2ccc(F)cc2)c(=O)c2sccc21 (stereo unspecified) | -1% | -4.1% | 11 | 3%
COc1ccc(F)cc1S(=O)(=O)NCCCn1ccnc1 | 1% | 7.1% | x | 7%
CCOC(=O)c1ccc(NCc2nc3ccccc3n2C)cc1 | -59% | 0.3% | 7 | -2%
CCC1C(=O)C[C@H]2CCN3C(=O)CCCC1C23 (stereo partly specified) | x | -2.7% | 0 | -19%
CC1CCN(S(=O)(=O)c2cn(CC(=O)Nc3ccc(OC(F)(F)F)cc3)cn2)CC1 | 0% | -3.1% | x | -6%
Cn1c(N)c(C(=O)COC(=O)C2CC(O)CN2S(=O)(=O)c2ccc(Cl)cc2)c(=O)n(C)c1=O (stereo unspecified) | -4% | u | 7 | 8%
O=C(NCc1nc2ccccc2[nH]1)c1ccco1 | -22% | 1.8% | -5 | -23%
CCOC(=O)C1CCCN(S(=O)(=O)c2ccc3c4c(cccc24)C(=O)N3CC)C1 (stereo unspecified) | x | u | x | u
COc1ccc(N(C)S(=O)(=O)c2cccc(C(=O)NCC(c3cccs3)N(C)C)c2)cc1 (stereo unspecified) | x | -3.6% | x | 4%
C=C(C)CN1CCN(S(=O)(=O)c2ccc(C)c(N(C)S(=O)(=O)c3ccc(C)cc3)c2C)CC1 | -7% | -2.4% | 10 | -1%
Cc1ccc(N2C(=O)C3C(c4ccccc4)(C2=O)C3(c2ccccc2)c2ccccc2)cc1 (stereo unspecified) | 19% | u | 0 | 6%

Of the compounds above, these have a CF3 group.
SMILES | miR-21 FLuc | Rango complex inh | GLA inh pH 4.5 | Rango dissoc inh
O=C(O)c1ccc(N/N=C/c2ccc(C(F)(F)F)cc2)cc1 | -9% | -4.1% | -2 | -1%
Oc1ccc(/C=N/Nc2nc(-c3ccc(Cl)cc3)cc(C(F)(F)F)n2)cc1 | u | -2.2% | -12 | 1%
CC1CCN(S(=O)(=O)c2cn(CC(=O)Nc3ccc(OC(F)(F)F)cc3)cn2)CC1 | 0% | -3.1% | x | -6%

Other structures:
SMILES | miR-21 FLuc | Rango complex inh | GLA inh pH 4.5 | Rango dissoc inh
CC1Cc2ccccc2N1C(=O)COC(=O)c1c2c(nc3ccccc13)CCCCC2 (stereo unspecified) | 18% | -3.5% | -21 | -2%
COc1ccc(Cl)cc1NC(=O)NCc1cccnc1 | -13% | -1.6% | x | 1%
O=C(OCC#CCSc1nnc(-c2ccccc2)o1)c1ccco1 | -17% | 0.7% | -2 | 3%
CCN(CC(=O)Nc1ccc(NC(C)=O)cc1)C(=O)/C=C/c1ccco1 | x | -1.6% | x | 1%
CN(C)CCCN(C(=O)c1cccs1)c1nc(-c2ccccc2)cs1 | -25% | -0.7% | -20 | -14%
O=C(N[C@@H]1CCC(=O)N(CC[C@H](Oc2ccccc2)c2ccccc2)CC1)OCc1ccccc1 | 12% | -0.5% | x | -4%
Cc1ccc(N2CC(C(=O)Nc3ccc(S(=O)(=O)N4CCCC4)cc3)CC2=O)cc1C (stereo unspecified) | -4% | -1.8% | x | 17%
O=[n+]1c2c(n([O-])c3c1CCCC3)CCCCC2 | 3% | -0.9% | 3 | 3%
CN(C(=O)/C=C/c1ccc([N+](=O)[O-])s1)c1ccccc1 | u | 0.0% | -4 | 9%
Cc1nn(-c2ccccc2)c(C)c1/C=N\NS(=O)(=O)c1ccc(Cl)cc1 | -3% | 1.1% | 0 | -1%
Cc1cc2c(ccc3c2no[n+]3[O-])nn1 | -9% | -5.9% | 2 | 21%
O=C(Nc1ccccc1F)N1CCc2ccccc2C1 | -68% | -2.1% | x | 20%
COc1cccc2cc(C(=O)Nc3ccccc3C(=O)N3CCOCC3)oc12 | 12% | 0.5% | x | 5%
Cc1cccc(CCNS(=O)(=O)c2ccc3c(c2)oc(=O)n3C)c1 | -7% | -2.6% | 7 | -7%
CC(=O)N1CCOc2ccc(S(=O)(=O)N3CCC(C(=O)Nc4ccc(C)cc4)CC3)cc21 | -1% | -2.8% | x | -4%
COc1ccccc1N1CCN(C(=O)C(=O)c2cn(CC(=O)N3CCOCC3)c3ccccc23)CC1 | -6% | 0.0% | x | 21%
COc1ccc(S(=O)(=O)N2CCOCC2)cc1NC(=O)CCc1nc2ccccc2c(=O)[nH]1 | -1% | u | x | -16%
CN(C)c1ccc(NC(=O)c2cn(-c3ccccc3)nc2-c2cccs2)cc1 | -16% | 2.6% | -3 | u
CC1CCCC(C)N1C(=O)COC(=O)CSc1ccc([N+](=O)[O-])cc1 (stereo unspecified) | x | 0.1% | x | -10%
CCOC(=O)C(C(=O)OCC)C1OC(=O)c2cc3c(cc21)C(=O)OC3C(C(=O)OCC)C(=O)OCC (stereo unspecified) | 2% | 1.2% | 2 | 5%
[N-]=[N+]=NC[C@H](Cc1ccccc1)N1CC[C@@H](OCc2ccccc2)CCC1=O | -7% | 0.2% | x | 17%
CC(C)(C)c1nc(NCCN2CCOCC2)c2nnn(Cc3ccccc3Cl)c2n1 | 1% | -2.0% | -26 | -4%
